NPYLR7 agonist – mosquito NPYLR7 agonism. AID 1259423. HEK293T NPYLR7/Galpha15, GCaMP6s calcium fluorescence. activation, % at 10 µM. actives 0.15% (n = 270,000); in the data active = activation above about 40%;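 note: 0% = vehicle and 100% = reference agonist at the receptor; some compounds past the cut are filed as inactive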
NPYLR7 agonist max-min – recorded beside NPYLR7 agonist, whose call it bears; activation, %; measured here: Max-Min RFU normalised activation; some inactives read as strong as hits;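 span of the calcium signal over five minutes; 0% = vehicle and 100% = native peptide agonist; compound fluorescence can raise it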
* marks the source's active call; other numbers are inactive results; & = joins results of further samples. Not all compounds are listed, so the mix of outcomes need not match the whole.

Sequence of screens – NPYLR7 agonist max-min, NPYLR7 agonist
COCC(=O)N1CCCN(C(=O)CN2CCc3sccc3C2c2ccc(Cl)cc2)CC1 (stereo not drawn)
 : 3, 16
COC(=O)N1CCN(C(C(=O)Nc2ccc3c(c2)OCO3)C2CCCC2)CC1 (stereo not drawn)
 : 11, 11
CCCC(C(=O)N1CCc2c(nc(C)nc2N2CCCC2)C1)n1cccc1 (stereo not drawn)
 : -13, -3
Cc1ccccc1Cn1cc(C(=O)NCc2cccs2)sc1=O
 : 7, 14
COc1ccc(C(=O)Nc2ccc(OC3CCN(C(=O)OC(C)(C)C)C3)cc2)c(OC)c1 (stereo not drawn)
 : -16, -8
CC1CCN(C(=O)c2cc(NC(=O)c3ccccc3)c(=O)n(C)c2)CC1
 : -5, -1
CCCSc1ccc(C(=O)N2CCC(N3CCN(C)CC3)CC2)cn1
 : 8, 7
CCCC12CN(C(=O)c3c(C)cc(C)c4c3CC(C)(C)C4=O)CC1C(=O)NC(=O)N2 (stereo not drawn)
 : -14, -9
O[C@@H]1CN(Cc2ccc(-c3ccn[nH]3)o2)CC[C@H]1c1ccc2c(c1)OCO2
 : -2, 2
CCCCOc1ccc(C(=O)Nc2cccc(-c3nc4ccccc4o3)c2)cc1
 : 0, -1
N#CC(C#N)=CC(=N)C(C#N)c1cc(O)c(O)c(O)c1 (stereo not drawn)
 : -31, 7
Cc1cn2c3c(=O)n(Cc4ccccc4F)c(=O)n(C)c3nc2n1CC1CCCO1 (stereo not drawn)
 : 4, 3
CC(C)NCc1nccn1Cc1ccccc1C(F)(F)F
 : 7, -4
COc1ccc(CCNC(=O)NCC(c2ccsc2)N2CCN(C)CC2)cc1 (stereo not drawn)
 : 4, 12
COc1cccc(C(=O)NCc2n[nH]c(=S)n2-c2cccc(C)c2)c1
 : -7, -5
COc1ccc(OCc2cc(C(=O)N3CCCC(CN4CCCC4=O)C3)no2)c(Cl)c1 (stereo not drawn)
 : 8, 10
O=C(CCC1CCCN(Cc2ccccc2-c2ccco2)C1)Nc1ccccc1F (stereo not drawn)
 : -1, 3
NS(=O)(=O)c1ccc(CCNCCC(=O)N2CCc3ccccc3C2)cc1
 : -5, 3
N#Cc1ncn(-c2ncc(C(F)(F)F)cc2Cl)n1
 : -5, -1
O=C(c1cccnc1Cl)N1CCN(CC(OCc2c(F)cccc2F)c2ccc(Cl)cc2)CC1 (stereo not drawn)
 : 8, -2
CCCOc1c(Cl)cc(C(=O)N2CCC(CN3CCOCC3)C2)cc1OC (stereo not drawn)
 : 10, 12
CN(C)CCn1ccc2ccc(NC(=O)c3sccc3C#N)cc21
 : -4, -3
Cc1cc(C(=O)N2CCC(n3cnc4cc(C(F)(F)F)ccc43)CC2)no1
 : 0, 3
CCOC(=O)c1cc(-c2ccc(OC)cc2)n(-c2ccc(C(=O)NCC3CCCO3)cc2)n1 (stereo not drawn)
 : -4, 3
CCOP(=O)(c1ccccc1)C(C#N)C(C)=O (stereo not drawn)
 : 0, 3
CCNC(=O)C1(C)CCN1CCC(=O)c1ccc(C)cc1 (stereo not drawn)
 : 2, 4
Cc1cc(C(=O)N2CCOC(COc3ccc4c(c3)CCCC4)C2)co1 (stereo not drawn)
 : 21, 23
CC(C)NC(=O)C1CCN(C2CCN(Cc3cccn3-c3ncccn3)CC2)CC1
 : 1&-1, 2&2
O=C(NCc1ccc(-c2ncc(-c3ccc(F)cc3)[nH]2)cc1)c1ccc(F)cc1
 : 1, 0
Cc1ccc(O)c(CN2CCCn3cccc3C2c2ccccc2Cl)c1 (stereo not drawn)
 : 10, 1
Cc1ccc2nc(-c3cccc(NC(=O)c4cc([N+](=O)[O-])ccc4Cl)c3)oc2c1
 : -12, -4
O=C(Cn1c(C(F)(F)F)nc2ccccc21)NN=Cc1ccc[nH]1
 : 4, 0
Cc1cccc(C(=O)NC(C(=O)NCc2ccco2)C2CCN(C(=O)c3ccco3)CC2)c1 (stereo not drawn)
 : 7, 0
CN(CC(=O)Nc1ccc2c(c1)OCCCO2)Cc1cnn(-c2ccccc2)c1
 : -3, -3
COCC(C)Nc1ncnc2sc3c(c12)CCCC3 (stereo not drawn)
 : 6, 2
CC1CC1C(=O)N1CCN(CCC(F)(F)F)CC1 (stereo not drawn)
 : -13, -10
COc1cccc(-c2nnc3ccc(OCCNC(=O)Nc4ccc(C(C)C)cc4)nn23)c1
 : 5, 6
CCOc1cc(/C=C(\C#N)c2nn(CCO)c(N)c2C#N)cc(Br)c1OC
 : -4, -1
CC1=C(C(=O)OCc2ccccc2)C(c2cccs2)C(C#N)C(=N)O1 (stereo not drawn)
 : -10, -8
O=C1c2ccccc2NC(c2cc(Br)ccc2OC(F)F)N1CC1CCCO1 (stereo not drawn)
 : 0, 2
Cc1cccc(-c2cnc(-c3ccncc3)nc2C2CCN(C(=O)COc3ccccc3)CC2)c1
 : 13, 28
O=C(Cn1cccn1)Nc1ccc(Oc2ccc(F)cc2)cn1
 : 1, 4
CC(C)CCC(c1ccccc1)N(C)C(=O)C1(C(N)=O)CC1 (stereo not drawn)
 : -2, 0
Cc1cc(CS(=O)C(C)C(=O)NC(C)(C)C)no1 (stereo not drawn)
 : 1, 5
CCN1CCN(S(=O)(=O)c2c(C)[nH]c(=O)[nH]c2=O)CC1
 : -20, -12
CCc1ncc2c(n1)CN(C(=O)CSc1ncn[nH]1)C2
 : -6, 0
COc1ccc(C(CO)N(C)Cc2ccc(-n3cccn3)cc2)cc1 (stereo not drawn)
 : 3, 4
O=C(c1cc(=O)n(-c2ccccc2)[nH]1)N1CCCC(Nc2ccc(F)cc2)C1 (stereo not drawn)
 : 7, 20
O=C(CSc1ccc(C(=O)NCC(c2ccccc2)c2ccccc2)cn1)c1ccc(Cl)cc1
 : -13, -6
Cc1ccc2[nH]c(CCCNC(=O)c3c(Cl)cnn3C)nc2c1C
 : -7, 1
CC(C)N(CC(=O)N(Cc1cccn1Cc1ccc(F)cc1)C1CCCCC1)C(=O)c1cc(Cl)cc(Cl)c1
 : -2, -4
Cc1ccc(NC(=O)CC(=O)NCCSc2nccn2C)c(C)c1
 : 1, 4
NS(=O)(=O)c1cc2c(cc1Cl)NC=NS2(=O)=O
 : -8&-9&-21&-5&-9, 0&-5&-18&-1&5
Cc1nc([N+](=O)[O-])cn1CCC(=O)N1CCN(c2cccc(O)c2)CC1
 : 4, 5
CCCCCCCCC(=O)N(CC(=O)NCC(=O)Nc1ccc(OC)cc1)Cc1ccccc1
 : 15, 15
CCC(C(=O)NC1CCN(c2ccccc2C(=O)NCc2ccc3c(c2)OCO3)CC1)c1ccccc1 (stereo not drawn)
 : 7, -3
CCN(C(=O)Cn1nnc(-c2cccs2)n1)C1CCS(=O)(=O)C1 (stereo not drawn)
 : -4, -4
COc1c(C)cc(C(=O)N2CCOC(COc3ccc(C)cc3)C2)cc1C (stereo not drawn)
 : 9, 18
COc1cc(Cl)c(S(=O)(=O)N2CCCC2)cc1Cl
 : 4, 1
Cc1ccc(S(=O)(=O)Nc2ccc3c(c2)CCC(=O)N3Cc2ccccc2)s1
 : 5, 12

Next part:
Sequence of screens – NPYLR7 agonist max-min, NPYLR7 agonist
COc1ccc(-c2c3c(nc4sc(C(=O)Nc5ccc(F)cc5)c(N)c24)CC(C)(C)CC3=O)cc1
 : 11, 9
C[C@@H]1CN(C(=O)CNC(=O)c2ccc(NC3OC(C4COC(C)(C)O4)[C@@H]4OC(C)(C)O[C@H]34)cc2)C[C@H](C)O1 (stereo partly drawn)
 : -15, -8
Fc1cccc(-c2nc3c(N4CCOCC4)nccc3[nH]2)c1
 : -11, -4
OCCC1CSCCN1c1ncnc2cc(F)c(F)cc12 (stereo not drawn)
 : 2, 3
COCCN1C(=O)N(C(C)C)C(=O)C12CCN(Cc1ccc(OC)cc1)CC2
 : 9, 21
CCCc1c(C)nn(-c2ccc(C(=O)Nc3ccc(C(C)C)cc3)cc2)c1C
 : -5, -1
CCc1cc2c(=O)n(NC(=O)Cc3cc(Cl)c4c(c3)OCCCO4)cnc2s1
 : 5, 5
COc1cn(CC(=O)Nc2cccc(C)c2C)c(CSc2ncccn2)cc1=O
 : -10, -4
CCN1CCN(C(=O)c2cc(-c3ccccc3F)n3nc(C(C)(C)C)cc3n2)CC1
 : -5, -11
O=C(CCN1CCCO1)N1CCOC(CC(c2ccccc2)c2ccccc2)C1 (stereo not drawn)
 : 11, 11
Cc1ccc(NC(=O)NCCNc2ccc(Nc3ccncc3)nn2)cc1
 : 1, 12
Cc1nnc(CCNC(=O)c2ccccc2C2CCNC2)s1 (stereo not drawn)
 : -14, -6
CCc1ccc(C(=O)N2CCN(c3cc(Oc4ccc(F)cc4F)ncn3)CC2C)cc1 (stereo not drawn)
 : 3, -4
COc1ccc(NC(=O)CCSc2ccc(Cl)cc2)cc1S(=O)(=O)N1CCOCC1
 : 4, 1
CCCNC(=O)C(C)S(=O)Cc1cccc(F)c1 (stereo not drawn)
 : 9, 10
COc1ccc2c(c1OC)CN(C(=O)c1ccccc1OCc1cccnc1)CC2
 : 4, 2
CCN(CC)CCC(C)OC(c1ccccc1)c1ccccc1 (stereo not drawn)
 : 1, 3
CC(Sc1nc2ccccc2c(=O)n1CCC1=CCCCC1)C(N)=O (stereo not drawn)
 : -2, 0
C=CCN1CCC(NC(=O)N(C)CCOc2ccc(F)cc2)CC1
 : 32, -1
CC(C)(C)C(=O)NCCc1nc2ccccc2n1Cc1ccc(Cl)cc1
 : 11, 6
CN(CC(=O)c1ccc(O)cc1)C(=O)c1cccc2cnccc12
 : -3, 0
Cc1ccc(CC(=O)N(C)Cc2sccc2C)cc1F
 : 7, 4
CC1C(=O)N(c2ccccc2F)CCN1C(=O)Nc1cccc(Cl)c1 (stereo not drawn)
 : 6, -2
Cc1cc(NCCCN(C)C)n2nc(C)c(-c3ccccc3)c2n1
 : -4, -2
C=CCC(O)(CC=C)c1ccc(CN(CCOC)Cc2cccs2)o1
 : 16, 12
CC1CCN(Cc2nc3c(oc4ccccc43)c(=O)[nH]2)CC1
 : 4, 4
Cc1c(-c2cc(F)c3c(c2)CC(CN)O3)c(=O)n(C)c(=O)n1C (stereo not drawn)
 : -11, -8
CCCCCN(CC(=O)Nc1cc(-c2ccccc2)nn1-c1ccccc1)C(=O)c1ccc(OC)cc1OC
 : -15, -8
Cc1cccc(-c2cn[nH]c2C2CCN(CC3CCOC3)CC2)c1 (stereo not drawn)
 : 7, 11
CNC(=O)c1cccc(NC(=O)c2ccc(NC(=O)C34CC5CC(CC(C5)C3)C4)cc2)c1
 : 6, 1

6 entries drawn at random from the list so far, as already listed:
Sequence of screens – NPYLR7 agonist max-min, NPYLR7 agonist
CCCNC(=O)C(C)S(=O)Cc1cccc(F)c1 (stereo not drawn)
 : 9, 10
CC(C)(C)C(=O)NCCc1nc2ccccc2n1Cc1ccc(Cl)cc1
 : 11, 6
OCCC1CSCCN1c1ncnc2cc(F)c(F)cc12 (stereo not drawn)
 : 2, 3
Cc1ccc(NC(=O)NCCNc2ccc(Nc3ccncc3)nn2)cc1
 : 1, 12
COc1ccc2c(c1OC)CN(C(=O)c1ccccc1OCc1cccnc1)CC2
 : 4, 2
CNC(=O)c1cccc(NC(=O)c2ccc(NC(=O)C34CC5CC(CC(C5)C3)C4)cc2)c1
 : 6, 1

Further entries
Sequence of screens – NPYLR7 agonist max-min, NPYLR7 agonist
O=c1c2cnc3nc(-c4ccc(Cl)cc4)nn3c2ccn1Cc1cccnc1
 : 5, 2
Cc1ccc(CNC(=O)N(Cc2ccc(F)cc2F)C2CC2)cn1
 : 6, 9
Cc1cc(C)nc(C(C#N)C(=O)CC(C)c2ccccc2C)n1 (stereo not drawn)
 : 1, 2
Cc1nn(CC(C)C)c(Cl)c1C(=O)N1CCN(C(=O)C2CC2)CC1
 : -2, 1
CC(C)(O)C#Cc1ccc(CN2CC[C@@H](c3ccc(F)cc3)[C@H](O)C2)s1
 : 2, 3
Cc1ccc(NC(=O)CC(=O)N(C)Cc2ncccc2C)cc1
 : -1, -1
CC[n+]1c(C)cc(Cl)c2ccccc21
 : -1, 1
C#CCN(CC#CC)C(=O)NC1CCCCC1
 : 179, -3
CCCCCCOc1ccc(C(=O)Nc2nnc(SCC)s2)cc1
 : -19, -7
O=C(Cn1c(=O)oc2ccccc21)Nn1cnc2ccccc2c1=O
 : 2, 2
NC(=O)c1c(NC(=O)CSc2nnc(C3CC3)n2C2CC2)sc2c1CCCC2
 : 13, 0
COCCCNCc1nc2scc(-c3cccc(OC)c3)c2c(=O)[nH]1
 : -6, -13
O=C(NCc1ccccc1Cl)c1ccc2sc([C@H]3C[C@H](O)[C@@H](CO)O3)nc2c1
 : 0, 3
Cc1c(C(=O)N2CCN(c3ncnc4c3cnn4C)CC2)[nH]c2c1C(=O)CCC2
 : 1, 0
FC(F)Oc1ccc(CNC23CC4CC(CC(C4)C2)C3)cc1
 : -1, 0
NC(=O)CN(Cc1ccccc1Cl)S(=O)(=O)c1cccc(C(F)(F)F)c1
 : -1, 2
Cn1cc(C(=O)N2CCOCC2)cc(NC(=O)C2CCCCC2)c1=O
 : 0, 0
O=C(NC1CCS(=O)(=O)C1)c1ccc(C2CCCCC2)cc1 (stereo not drawn)
 : -4, -2
Cc1cccc(NC(=O)c2cc(S(N)(=O)=O)ccc2F)c1
 : -6, -2
CCOn1c(=O)c(=O)n(OCC)c2ccccc21
 : 7, 4
Cc1[nH]c(=O)n(C)c(=O)c1CCC(=O)Nc1ccc(Cl)c(C(F)(F)F)c1
 : -12, -5
CCCCN(CC(=O)Nc1cc(C(C)(C)C)nn1-c1ccc(C)cc1)C(=O)Nc1c(Cl)cccc1Cl
 : 11, 12
CCOc1ccc2nc(SC(F)F)[nH]c2c1
 : 4, 5
O=C(COCc1ccccc1)NCC1CCN(c2nc(Cc3ccc(Cl)cc3)ns2)CC1
 : 27, 15
Cn1nc(C(=O)N2CCCC(Nc3ccc4c(c3)OCCO4)C2)ccc1=O (stereo not drawn)
 : 0, 1
CCCCc1ccc(N2C(=NC(=O)CCC(=O)O)SC3CS(=O)(=O)CC32)cc1 (stereo not drawn)
 : -12, -8

An excerpt of these results, tab-delimited.
smiles	NPYLR7 agonist max-min	NPYLR7 agonist
Cn1cc(C(=O)N2CCOCC2)cc(NC(=O)C2CCCCC2)c1=O	0	0
O=C(NC1CCS(=O)(=O)C1)c1ccc(C2CCCCC2)cc1 (stereo not drawn)	-4	-2
